# CtBP-E1A blk: blocks the CtBP interaction with E1A; AlphaScreen GST-E1A/His-CtBP binding, 1536-well; stronger effect = lower value; control for the full effect not named in the record; activity change, % (test concentration not listed); AID 651724; hit rate 0.49% among 340,000; in the data active means activity change below about -65%; inconclusive means about -30% to -65%; inactive means above about -30%; also: % is scaled to controls: 0 for no effect and ±100 for the full control effect; compound concentration not given in the record
#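 GST-E1A and His-tagged CtBP (125 nM each as 5X stock) were preincubated with pin-transferred compound for 2 h at 37 °C in the dark, then glutathione donor and nickel acceptor beads were added for 1 h before AlphaScreen reading.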
# TRPV1 potentiator: human TRPV1 potentiation; hit rate 0.02% among 320,000; Q8NER1; TRPV1-expressing cells, Fluo-8 calcium influx, capsaicin EC20 potentiation; host cell line not named in the record; control for the full effect not named in the record; potentiation, % at 8.33 µM; active means potentiation above 80%; inconclusive means 30% to 80%; inactive means below 30%; also: 0% is about no effect
# Target sequence (Q8NER1 whole entry, looked up): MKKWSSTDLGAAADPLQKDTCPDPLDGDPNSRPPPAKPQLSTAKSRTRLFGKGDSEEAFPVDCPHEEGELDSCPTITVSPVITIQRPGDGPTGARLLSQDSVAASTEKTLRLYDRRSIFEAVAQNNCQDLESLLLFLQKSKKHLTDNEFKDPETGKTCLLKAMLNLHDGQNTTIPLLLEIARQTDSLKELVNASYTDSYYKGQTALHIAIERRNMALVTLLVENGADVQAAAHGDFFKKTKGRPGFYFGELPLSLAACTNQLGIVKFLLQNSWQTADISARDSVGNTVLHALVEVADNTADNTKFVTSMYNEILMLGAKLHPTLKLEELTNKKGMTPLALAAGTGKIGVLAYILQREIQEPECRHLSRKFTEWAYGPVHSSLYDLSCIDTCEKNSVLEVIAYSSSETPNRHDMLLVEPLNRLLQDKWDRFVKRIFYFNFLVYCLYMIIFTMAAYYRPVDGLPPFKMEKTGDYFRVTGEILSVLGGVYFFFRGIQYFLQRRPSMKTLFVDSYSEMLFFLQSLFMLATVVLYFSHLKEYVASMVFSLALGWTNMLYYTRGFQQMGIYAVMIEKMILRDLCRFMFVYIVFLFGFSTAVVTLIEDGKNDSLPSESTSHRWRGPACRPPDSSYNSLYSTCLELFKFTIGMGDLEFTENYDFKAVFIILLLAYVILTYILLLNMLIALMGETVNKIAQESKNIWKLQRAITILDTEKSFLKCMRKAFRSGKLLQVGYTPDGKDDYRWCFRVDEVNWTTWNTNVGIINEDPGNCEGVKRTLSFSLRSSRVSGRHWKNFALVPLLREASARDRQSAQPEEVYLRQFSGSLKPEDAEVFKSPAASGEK
#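 Fluo-8 calcium influx in TRPV1-expressing cells, kinetic read (ex 480/em 520 nm). Compound added and read 3 min for agonist activity, followed by capsaicin at EC20 final and 2 min further read for enhancement.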
# TRPML1 inh: blocks the human TRPML1 channel; Q9GZU1; TRPML1-inducible cells, Ca2+ dye fluorescence, FDSS; stronger effect = lower value; inhibition of EC80 agonist-evoked calcium signal; activity change, negative = inhibition, % (concentration not given with the values); hit rate 0.02% among 390,000; AID 624415; in the data active means activity change below about -50%; inconclusive means about -30% to -50%; inactive means above about -30%;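 also: stimulus is agonist 54-4 at its EC80 concentration; % is scaled to controls: 0 for no effect and ±100 for the full control effect; compound concentration not given in the record; the text of the record puts the active cut at -80%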
#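 TRPML1-DL cells, Tet-induced overnight (~16 h, 37 °C) at 1,500 cells/well, were loaded with Ca8 no-wash dye plus quencher for 45-90 min at room temperature. Compounds were pinned during FDSS kinetic reading; agonist 54-4 at EC80 (4 uM final) then added.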
# D2 PAM: human D2 receptor positive allosteric modulation; potentiation, % (concentration not given with the values); P14416; DiscoveRx D2 beta-arrestin cells, luminescence, 90 min; 100% = 57 uM dopamine signal; hit rate 0.23% among 360,000; active = potentiation of 50% or more; inconclusive = 30% to 50%; inactive = 30% or less;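 also: compound concentration not given in the record; tested on top of an EC20 dose of dopamine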
#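 PathHunter D2 cells, attached overnight at 37 deg C, received compound in DMSO plus dopamine at EC20 (50 nM final) for 90 min at 37 deg C. Beta-arrestin recruitment was read as luminescence after 1 h with detection reagent at ambient temperature.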
# Six1-Eya2 inh: blocks human Six1 binding to Eya2; hit rate 0.56% among 360,000; activity change, % (test concentration not listed); AlphaScreen GST-Six1/His-Eya2 binding, biochemical; stronger effect = lower value; control for the full effect not named in the record; Q15475+O00167; in the data active = activity change below about -65%; inconclusive = about -30% to -65%; inactive = above about -30%; also: % is scaled to controls: 0 for no effect and ±100 for the full control effect; compound concentration not given in the record
#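 GST-Six1 + His-Eya2 (5X stock: 250/500 nM); Tris pH 8.0, 300 mM NaCl, 0.05% BSA, 0.02% Tween 20; GSH donor/Ni acceptor beads; 1 h 37 °C dark; AlphaScreen readout.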
# TRPML1 agonist: activates the human TRPML1 channel; activation, % (no concentration beside the values); Q9GZU1; hit rate 0.12% among 410,000; TRPML1-expressing cells, Ca2+ dye fluorescence, FDSS; host cell line not named in the record; reference of the full effect not given here; in the data active = activation above about 50%; inconclusive = about 30% to 50%; inactive = below about 30%; also: 0% is about no effect; the text of the record puts the active cut at 80%
#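 Kinetic FDSS Ca2+ read in Tet-induced TRPML1-DL cells (ABD Ca8 dye plus quencher, 45-90 min RT loading): baseline, then compound, then 110 s agonist window; EC80 agonist 54-4 at 4uM final added afterwards for a 110 s antagonist window.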
# Numbers without * were called inactive; ? = inconclusive; · = no result given; & = joins results of further samples.
SMILES,CtBP-E1A blk,TRPV1 potentiator,TRPML1 inh,D2 PAM,Six1-Eya2 inh,TRPML1 agonist
Clc1ccc(CNc2ccc(CNc3ncn[nH]3)cc2)c(Cl)c1,-25,-13,-7,-10,6,1.6
CCN(CC)S(=O)(=O)c1ccc(N2CCN(S(=O)(=O)c3ccccc3C#N)CC2)nc1,38,0,1,-7,26,-0.5
CCCCn1c(N)c(N(CCC(C)C)C(=O)c2cc(S(=O)(=O)N3CCOCC3)ccc2F)c(=O)[nH]c1=O,-20,-8,-14,10,14,-0.5
CCc1ccc(N/C(N)=N/c2nc(CSc3ccccn3)cc(=O)[nH]2)cc1,3,3,21,-7,-14,0.3
Cc1ccc(/C=N/NC(=O)c2cc(-c3ccccc3)nc3ccccc23)o1,-28,0,-6,-18,-22,0.8
Nn1cnnc1N/N=C\c1ccc(-c2ccccc2[N+](=O)[O-])o1,0,-1,21,-12,?,0.1
Cn1cc(S(=O)(=O)N2CCCC2)cc1C(=O)N1CCN(c2cccc(Cl)c2)CC1,3,-9,5&7,-1,-4,0.4&-0.8
COc1ccc(S(=O)(=O)N2CCc3ccccc3C2)cc1,-17,-2,-6,-4,11,1.2
CC(C)CC(NC(=O)CCl)c1ccccc1 (stereo unspecified),-4,4,-1,-12,9,0.1
O=C(c1ccccc1)c1cccc[n+]1[O-],2,-4,20,-3,-4,-0.2
Cc1sc(NC(=O)C2CC(=O)N(Cc3ccco3)C2)nc1-c1ccccc1 (stereo unspecified),-13,·,34,0,-7,0.3
CS(=O)(=O)OCCCCOS(C)(=O)=O,5,·,0,-1,0,-0.2
Cc1ccc(NC(=O)CSc2nc3ccccc3c(=O)n2CCCN2CCCCC2)cc1Cl,-16,0,-8,-12,-11,1.1
COc1cccc(C2C(C(C)=O)=C(O)C(=O)N2CCc2c[nH]c3ccccc23)c1 (stereo unspecified),-1,10,12,1,5,0.7
CCc1c(C(=O)N/N=C/c2sccc2C)nnn1-c1nonc1N,-1,-10,-6,-2,-4,0.3
Cc1ccc(NCc2ccccc2O)cc1C,-10,27,-13,-6,-12,0.1
COCCn1nnnc1C(C(C)C)N(Cc1cccnc1)Cc1cc2cc(OC)ccc2[nH]c1=O (stereo unspecified),-10,8,-8,-1,2,-0.1
COc1ccccc1N1CCN(C(=O)c2ccc(S(=O)(=O)N3CCCCC3)cc2)CC1,-1,7,-1,-23,-12,0.6
O=C(COC(=O)c1ccc(F)c(S(=O)(=O)N2CCOCC2)c1)NCc1ccccc1,-1,·,9,3,0,-0.4
Cc1cccc(OS(=O)(=O)NC(=O)OCC2CCCN3CCCCC23)c1 (stereo unspecified),8,4,-10,0,9,0.0
C[C@H](CO)N1C[C@H](C)[C@@H](CN(C)C(=O)Nc2ccc3c(c2)OCO3)Oc2ccc(NC(=O)Cn3cnnn3)cc2C1=O,0,·,-27,-4,0,0.3
Cn1c(NC(=O)c2ccco2)c(-c2ccccc2Cl)c(=O)c2ccccc21,1,-1,5,-7,2,-1.1
O=C(Cc1c(Cl)cccc1Cl)Nc1cccnc1,4,6,7,-1,2,-0.6
CC(C)CCNC(=O)[C@@H](NC(=O)c1c(F)cccc1F)C(C)C,7,21,7,0,6,-1.0
Cn1ccnc1SCC(=O)Nc1ccc(Br)cc1C(F)(F)F,5,10,2,-1,-2,-0.3
COc1cccc(-c2nnc(SCC(=O)Nc3ccc(OC)c(OC)c3)n2N)c1,-19,-21,100,2,-15,-1.0
COC(=O)C(C(=O)Nc1cc(C)on1)C1CCCCCC1 (stereo unspecified),2,3,6,-5,-4,0.0
COc1cc(C(=O)NCc2ccccc2Cl)ccc1OCC(=O)N1CCOCC1,-3,·,0,-6,6,0.4
CCc1cc2cc3c(cc2nc1SCC(=O)OC(C)C)OCO3,25,-5,-14,-24,9,3.0
CN(C)C(=S)c1ccc2ccccc2n1,2,-5,-14,-11,1,-1.0
O=C(Nc1ccccc1)C1Cc2c(-c3ccco3)ccnc2O1 (stereo unspecified),0,·,·,2,-5,-0.9
CCCc1cc(=O)[nH]c(SCc2ccccc2Cl)n1,-6,9,5,13,2,0.0
O=C(O/N=C\c1ccc(N2CCCCC2)c([N+](=O)[O-])c1)c1c(F)cccc1F,?,-6,23,-21,?,-0.4
Cc1nnc(-c2cnn(C)c2N)n1CCCN1CCOCC1,-2,?,16,-2,-10,-0.4
COC(=O)C(c1cc(OC)c(O)c(OC)c1)(N1CCNC(C)C1)C(F)(F)F (stereo unspecified),11,-5,14,18,-2,0.0
CCCC(=O)Nc1ccc(Cl)c(NC(=O)c2cccc(OC)c2)c1,-5,-6,-5,-5,-2,1.4
C[C@@H]1CN([C@H](C)CO)C(=O)CCCn2nncc2CO[C@@H]1CN(C)S(=O)(=O)c1ccc(F)cc1,-3,·,38,-12,9,0.5
CCCCCc1nc2c(c3c1CCCC3)CCCC2,1,14,10,-7,0,1.9
COc1ccc(OCCOC(=O)c2nc3nccc(C)n3n2)cc1,-4,1,1,3,-4,0.1
Cc1ccc(C(c2nnnn2CC2CCCO2)N2CCN(C)CC2)cc1 (stereo unspecified),5,0,-2,-6,5,3.0

# A draw from above in order of molecular weight, lowest first:
SMILES,CtBP-E1A blk,TRPV1 potentiator,TRPML1 inh,D2 PAM,Six1-Eya2 inh,TRPML1 agonist
CCCc1cc(=O)[nH]c(SCc2ccccc2Cl)n1,-6,9,5,13,2,0.0
CCCC(=O)Nc1ccc(Cl)c(NC(=O)c2cccc(OC)c2)c1,-5,-6,-5,-5,-2,1.4
C[C@@H]1CN([C@H](C)CO)C(=O)CCCn2nncc2CO[C@@H]1CN(C)S(=O)(=O)c1ccc(F)cc1,-3,·,38,-12,9,0.5

# The results go on.
SMILES,CtBP-E1A blk,TRPV1 potentiator,TRPML1 inh,D2 PAM,Six1-Eya2 inh,TRPML1 agonist
O=[N+]([O-])c1ccccc1S(=O)(=O)c1ccccc1[N+](=O)[O-],-12,1,21,-8,-5,-0.5
Cc1cc(Br)ccc1NC(=O)CN(C)Cc1cccs1,12,-2,-28,-11,10,2.1
COc1ccc(N2C(=O)CC(Sc3ccccc3C(=O)O)C2=O)c([N+](=O)[O-])c1 (stereo unspecified),·,-17,-9,-2,-8,1.4
COC(=O)/C=C1/N/C(=N\c2nc(C)cc(C)n2)N(c2ccc(Cl)cc2)C1=O,-5,6,37,-2,5,0.1
COc1cccc(O)c1CN1CCC(Oc2ccc(C(=O)NCc3ccccn3)cc2)CC1,-8,4,-13,-21,-1,-0.1
CCCCNC(=O)c1ccc(NC(C)=O)c(Cl)c1,-10,7,-3,-15,12,0.5
O=[N+]([O-])c1cccc(C=NNC(=S)NC23CC4CC(CC(C4)C2)C3)c1,10,·,-19,-16,-3,-0.2
COc1ccccc1CNC(=O)CN1C(=O)NC2(CCCc3sccc32)C1=O (stereo unspecified),·,21,6,-4,0,-1.2
CCN1C(=O)CSC1=Nc1ccc(C(=O)O)cc1,0,15,-7,1,24,0.2
CCOC(=O)c1ccccc1NS(=O)(=O)c1ccccc1,-9,-3,5,-5,9,3.2
CC(C)COC(=O)c1cccc2c1-c1ccccc1/C2=N\O,1,-6,6,-17,-6,-0.4
CC(C)(C)N1CC(C(=O)Nc2ccc(C(N)=O)cc2)CC1=O (stereo unspecified),3,·,-4,-1,-15,-0.3
C=C(C)COc1cc2oc(=O)c(CC(=O)N3C[C@H]4C[C@@H](C3)c3cccc(=O)n3C4)c(C)c2cc1Cl,3,-1,·,-23,0,·
COc1ccc(N=C2NC(=O)/C(=C\C=C\c3ccccc3)S2)cc1,-6,-13,6,-9,-12,0.4
COc1ccc(NC2CC(=O)N(c3cc([N+](=O)[O-])ccc3C)C2=O)cc1 (stereo unspecified),-4,3,9,-12,-6,-0.5
O=C(CN1C(=O)NC2(CCCC2)C1=O)Nc1cc(Cl)ccc1Oc1ccccc1,2,-4,26,3,0,-0.3
COc1ccc(/C(N)=N/OC(=O)Oc2ccccc2)cc1OC,-6,7,-14,-2,11,0.3
CCOC(=O)C(NCc1ccc2c(c1)OCO2)(NC(=O)CC)C(F)(F)F (stereo unspecified),2,6,5,9,0,-0.9
CCOC(=O)c1cc2occc2n1CC(=O)N1CCOCC1,-2,3,7,-8,-2,0.7
CC(C)c1nc(SCC(=O)NC(=O)NC(C)(C)C)n[nH]1,-2,-7,-12,-4,11,-0.3

# Fetched by structure from the entries so far:
SMILES,CtBP-E1A blk,TRPV1 potentiator,TRPML1 inh,D2 PAM,Six1-Eya2 inh,TRPML1 agonist
CC(C)c1nc(SCC(=O)NC(=O)NC(C)(C)C)n[nH]1,-2,-7,-12,-4,11,-0.3
CCOC(=O)c1cc2occc2n1CC(=O)N1CCOCC1,-2,3,7,-8,-2,0.7
COc1cccc(O)c1CN1CCC(Oc2ccc(C(=O)NCc3ccccn3)cc2)CC1,-8,4,-13,-21,-1,-0.1
CCCCNC(=O)c1ccc(NC(C)=O)c(Cl)c1,-10,7,-3,-15,12,0.5

# Further compounds
SMILES,CtBP-E1A blk,TRPV1 potentiator,TRPML1 inh,D2 PAM,Six1-Eya2 inh,TRPML1 agonist
Cc1ccsc1C(=O)N/N=C/c1ccc2c(c1)OCO2,6,1,0,-6,6,-0.3
CCOc1ccc([C@@H]2CC=C(C(=O)O)CN2S(=O)(=O)c2ccc(C)cc2)cc1,·,-2,-12,-7,0,-0.6
Cc1ccc(OCC(=O)c2cc(C)n(Cc3ccco3)c2C)c([N+](=O)[O-])n1,-14,-14,0,-1,-20,0.0
O=C(COC(=O)CNC(=O)c1ccc(Cl)cc1Cl)Nc1cccc(S(=O)(=O)N2CCCC2)c1,1,-3,-3,-10,-2,-0.2
CCN(CC)S(=O)(=O)c1ccc(NC(=O)c2cc(-c3cccs3)nc3ccccc23)cc1,8,21,-8,6,3,0.4
COC(=O)C1CN(C(=O)COc2cc(C)cc(C)c2)c2ccccc2O1 (stereo unspecified),15,-11,-15,-9,13,1.2
CCn1c2ccccc2c2cc(NC(=O)CSc3nnc(-c4cccc(Cl)c4)o3)ccc21,7,23,30,-2,0,-0.8
CC(C)Oc1ccc(CC(=O)NNC(=S)Nc2ccc(Br)cc2)cc1,3,6,-3,-15,-11,0.7
CCOc1ccc(-n2nnnc2SCC(=O)c2ccccc2)cc1,11,-10,11,-11,5,0.6
Cc1ccc2[nH]c(O)c(N=NC(=O)C(C)n3cnc4ccccc4c3=O)c2c1 (stereo unspecified),4,-7,-6,-21,0,1.7
C=CCN1C(=O)CN=C1Nc1ccc(F)cc1,-7,2,-10,-5,1,0.1
CCc1cc(=O)oc2cc(C)cc(OC(C)C(=O)NCCCN3CCCC3=O)c12 (stereo unspecified),5,8,2,16,-2,-0.6
CS(=O)(=O)c1cc([N+](=O)[O-])c(Sc2nc3ccccc3[nH]2)c([N+](=O)[O-])c1,2,9,-20,-1,-4,0.9
C=CCNC(=O)c1ccc(Cn2c(=S)[nH]c3cc4c(cc3c2=O)OCO4)cc1,5,0,28,-1,-24,-0.6
Cc1ccc(CN2CC(N3CCN(Cc4cccc(C)c4)CC3)CS2(=O)=O)cc1 (stereo unspecified),-1,·,·,-9,-13,-0.6
CCOC(=O)C1=C(COC(=O)CCc2ccc(CC)cc2)NC(=O)NC1C (stereo unspecified),2,11,-22,-10,-1,3.7

# High-throughput results from PubChem.
